Screens (PubChem BioAssay)
PrP 5UTR inh – inhibition of PrP 5' UTR reporter expression; cell-based PrP 5' UTR mRNA reporter, plate reader; inhibition, % (no concentration beside the values); 0.35% of 340,000 active;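 active = every replicate at 50% or more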;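 note: 0 = median of the neutral control wells; tested in H4 reporter cells; numbers are from one replicate; inactives centre near -14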
Sa RN4220 lethal – S. aureus RN4220 growth inhibition | 0.33% of 330,000 active | OD600, 16 h | AID 1259311 | inhibition, % (concentration not given with the values);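 active = z-score of -3 or lower and OD600 up to 0.18 on both plates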;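 note: plate controls were untreated cells for no effect and reference antibiotic for full effect; stock transfer was 100 nL into about 80 µL; one replicate is shown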
Mtb hypoxia inh – inhibitors of hypoxia-regulated fluorescent reporter in Mycobacterium tuberculosis; fluorescence inhibition, % (test concentration not listed); M. tuberculosis hypoxia-regulated fluorescent reporter, fluorescence; 0.1% of 300,000 active;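 active = 35 to 45% if threefold the growth effect, above 45% if 1.5-fold the growth effect; inactive = the rest, general growth blockers included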;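 note: wells of about 50 µL received 100 nL stock; 0% = vehicle wells and 100% = reference inhibitor wells; whole bacteria with a GFP reporter of the hypoxia response; strong numbers were not always called active; many hits fall short of the cut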
Bead autofluor – compound fluorescence in toxin protease inhibitor counterscreen. fluorescence intensity (test concentration not listed). 3.1% of 360,000 active. AID 624483. compound autofluorescence counterscreen, microsphere flow cytometry; active compounds read high;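 active = at least 3 SD above the mean of all compounds, about 16000 in these data; inconclusive = too few beads counted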;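 note: 100 nL of 1 mM stock went into each well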
ugtP null kill – growth inhibition of S. aureus ugtP deletion strain | 0.54% of 330,000 active | growth inhibition, % (concentration not given with the values) | S. aureus RN4220 ugtP deletion, OD600 growth, 16 h; some inactives read as strong as hits;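 active = z-score under -3 and OD600 up to 0.15 on both plates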;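 note: plate controls were untreated wells for no effect and antibiotic for full effect; wells of about 80 µL received 100 nL stock; the first replicate is given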
BJeLR lethal – BJeLR cell viability loss; BJeLR (HRASV12) viability, CellTiter-Glo ATP luminescence, 48 h; reference of the scale not given here; inhibition, % (test concentration not listed); AID 1554; 0.17% of 300,000 active;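 active = replicate mean above 50%; inconclusive = above 50% but judged a plate artefact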;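 note: 50 nL library stock added to about 25 µL; numbers are from one replicate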
Mtb hypoxia inh growth – recorded beside Mtb hypoxia inh, whose call it bears; growth inhibition, %; measured here: M. tuberculosis growth (absorbance);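 0% = vehicle and 100% = reference antibiotic; read after six days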
* marks the source's active call; other numbers are inactive results; u = inconclusive; x = no result given. An unsorted share of the library; about 4% have a hit in one of these screens.

SMILES	PrP 5UTR inh	Sa RN4220 lethal	Mtb hypoxia inh	Mtb hypoxia inh growth	Bead autofluor	ugtP null kill	BJeLR lethal
Cc1cc(C)n(-c2ccc(NC(=O)C3CCN(Cc4cc(C)c(C)o4)CC3)cc2)n1	-3	0.6	0	2	6486	-3	4
O=C(Nc1ccccc1F)c1ccc(S(=O)(=O)N2CCCCCC2)cc1	-4	7.3	0	-3	u	11	x
Cc1ccccc1CNS(=O)(=O)c1c(C)[nH]c(C)c1C(=O)N1CCCCC1	-12	1.6	3	18	5473	-1	6
COc1cc(C2c3c(n[nH]c3C)C(=O)N2c2ccc(Br)cc2)ccc1O (stereo unspecified)	-6	6.7	x	x	3491	-2	-2
CCOC(=O)C(c1ccccc1)C(Nc1ccccc1)c1ccccn1 (stereo unspecified)	-17	3.4	5	11	5919	5	13
CC(C)O/C(=N\S(=O)(=O)c1ccc(Cl)cc1)c1ccccc1	-16	x	x	x	11199	x	-10
CCOC(=O)c1c(C)sc2c1N(C(=O)CN(CC)CC)c1cc(Cl)ccc1S2	-17	-0.2	x	x	2892	-8	0
Cc1ccccc1C(=O)Nc1ccc2c(c1)CCCN2C(=O)c1cccs1	-5	4.3	1	1	5945	-1	1
CCn1c(SCC(=O)N2CCCC2)nnc1-c1ccc(N)cc1	1	-2.5	x	x	4888	6	23
CC(C)OCC(O)Cn1c(N2CCCC2)nc2c1c(=O)n(C)c(=O)n2C (stereo unspecified)	-11	8.3	19	9	4374	6	-14
O=C(O)c1nn(-c2cccc(C(F)(F)F)c2)ccc1=O	-15	0.5	8	4	3661	0	-14
CSCCC(NS(=O)(=O)c1ccccc1F)C(=O)NNC(=O)c1csc(N2CCOCC2)n1 (stereo unspecified)	-29	-0.9	2	11	6188	7	2
CC1CCN(C(=O)Cn2cc3c(n2)CCCC3)CC1	-17	2.1	x	x	5685	0	-1
CCN(CCCNC(=O)CN1C(=O)COc2ccccc21)c1cccc(C)c1	-21	0.3	12	3	9801	-1	5
O=C(CSc1nncn1-c1ccccc1)Nc1ccccc1	-10	-3.5	1	7	3569	9	-5
CC(=O)/C(C(=N)N1CCN(Cc2ccccc2)CC1)=C(\C)O	-8	-2.2	x	x	4206	9	-6
CC(C)c1ccc(C2(C)NC(=O)N(CC(=O)NC3(C#N)CCCC3)C2=O)cc1 (stereo unspecified)	-10	3.6	-1	3	8591	2	x
O=C(CC(O)(c1ccccc1)C(F)(F)F)c1cccs1 (stereo unspecified)	9	6.2	12	-2	6017	4	-5
COc1cccc(C(=O)Nc2ccc(F)c(F)c2F)c1	-52	14	x	x	3876	6	-9
CC(=O)N(CN1C(=O)CCC1=O)c1ccc(Cl)c(Cl)c1	-24	-0.4	-1	9	3299	3	6

Entries of single compounds, quoted from the list. Screens in order: PrP 5UTR inh, Sa RN4220 lethal, Mtb hypoxia inh, Mtb hypoxia inh growth, Bead autofluor, ugtP null kill, BJeLR lethal
CCN(CCCNC(=O)CN1C(=O)COc2ccccc21)c1cccc(C)c1 is listed with -21, 0.3, 12, 3, 9801, -1, 5
CC(=O)/C(C(=N)N1CCN(Cc2ccccc2)CC1)=C(\C)O is listed with -8, -2.2, x, x, 4206, 9, -6
CSCCC(NS(=O)(=O)c1ccccc1F)C(=O)NNC(=O)c1csc(N2CCOCC2)n1 (stereo unspecified) is listed with -29, -0.9, 2, 11, 6188, 7, 2
CC(=O)N(CN1C(=O)CCC1=O)c1ccc(Cl)c(Cl)c1 is listed with -24, -0.4, -1, 9, 3299, 3, 6
COc1cccc(C(=O)Nc2ccc(F)c(F)c2F)c1 is listed with -52, 14, x, x, 3876, 6, -9

Following part.
SMILES	PrP 5UTR inh	Sa RN4220 lethal	Mtb hypoxia inh	Mtb hypoxia inh growth	Bead autofluor	ugtP null kill	BJeLR lethal
CC(=O)Nc1ccc2c(c1)nc1n2CCSC1	-36	-0.5	6	6	18041*	-3	-1
O=C(NNC(=O)C1C2C=CC(C2)C1C(=O)O)c1ccccc1O (stereo unspecified)	8	x	x	x	3138	x	-4
Cc1cccc(C(=O)N[C@H](C(=O)Nc2nc3ccc(S(C)(=O)=O)cc3s2)C(C)C)c1	-14	8.9	-11	-2	3959	5	1
CC(C)NC(=O)NC(=O)COC(=O)c1ncc(Cl)c(Cl)c1Cl	-24	1.4	3	11	4205	4	10
COc1ccc(NC(=O)C2CCCN(S(=O)(=O)c3c(C)n[nH]c3C)C2)cc1OC (stereo unspecified)	0	-2.7	7	7	4271	1	-1
CSc1cccc(NC(=S)N(CCN(C)C)C(C)c2ccncc2)c1 (stereo unspecified)	-13	4.9	8	11	u	13	15
O=C(CSc1nccc(=O)[nH]1)c1c[nH]c2ccccc12	12	-1.6	6	1	5190	5	1
CCCCNC(=O)C(=O)N/N=C/c1ccc(C(=O)OC)cc1	-15	x	x	x	3533	x	-1
COc1ccc(-c2c(C(C)=O)c(C)nc3sc4c(=N)n(N)cnc4c23)cc1	-17	3.5	3	9	2076	1	-7
C=CC[N+](C)(C)CCCNC(=O)/C=N/O	-2	x	x	x	2563	x	-3
CC[n+]1c(/C=C/N(C)c2ccccc2)oc2ccc(F)cc21	-22	2.3	-1	-2	7542	1	10
CC1(C)Cc2c(ccc3ccccc23)C(NNC(=O)c2cccnc2)=N1	-16	2.2	x	x	2103	1	5
CCCC(=Nc1ccc(N)cc1)C1=C(O)C(C(=O)OC)C(C)(C)CC1=O (stereo unspecified)	-9	3.4	8	0	23098*	-1	8
CC(C)CC(C(=O)NC1CCCC1)N(Cc1cccs1)C(=O)c1snc(C(N)=O)c1N (stereo unspecified)	6	3.3	-5	3	3921	-2	3
COc1ccc(NC(=O)C(OC)c2ccccc2)cc1Cl (stereo unspecified)	-23	6.9	8	7	2833	12	-3
Cc1ccc(C(=O)C2CCN(C(=S)NCCCOC(C)C)CC2)cc1	-9	4.2	4	-3	3698	6	-6
O=C(/C=C/c1ccc(O)cc1)c1ccccc1	-68	8.9	x	x	4248	2	3
CC(O)CNc1ncnc2nc[nH]c12 (stereo unspecified)	-20	2.0	-7	-2	4450	-1	-13
CCOC(=O)c1ccccc1NC(=O)CSc1nc2ccccc2c(=O)[nH]1	11	4.3	12	8	3288	-60	0
COc1ccc(OC)c(S(=O)(=O)NNC(=S)Nc2ccc3c(c2)OCO3)c1	-14	0.6	5	3	4475	0	2
Cc1ccc(Cn2ncc3c(N4CCN(CC#N)CC4)ncnc32)cc1	-9	-0.5	-12	-6	4352	3	4
COc1cc(OC)cc(C(=O)NC2CCN(C(=O)N3c4ccccc4Sc4ccccc43)CC2)c1	-9	3.4	-6	11	10055	-27	5
CC(NC(=O)c1nc[nH]c1C(=O)NCC(=O)OCc1ccccc1)C(=O)OCc1ccccc1 (stereo unspecified)	x	7.9	4	4	x	-7	x
CC1CCCCC12NC(=O)N(CC(=O)NCCc1ccc(F)cc1)C2=O (stereo unspecified)	-16	1.2	10	-5	9032	2	x
Cc1ccc(S(=O)(=O)NCCCNS(=O)(=O)c2ccccc2Br)cc1	-18	5.7	-4	3	3534	-2	x
Cc1ncc([N+](=O)[O-])n1CCOc1nonc1N	-8	9.2	11	7	4199	5	7
NCCN1CCN(CC(=O)N2c3ccccc3C(=O)Nc3cccnc32)CC1	-10	5.0	0	4	2890	2	-6
CC1=CN2C(=NC(=O)CC2(C)C(=O)N(CC(=O)NC2CCCC2)Cc2ccc(Cl)cc2)C=C1 (stereo unspecified)	-9	1.9	7	2	5747	14	-17
CCOC(=O)c1nnn(-c2nonc2N)c1CN(CC)CC	-9	2.6	12	7	2394	6	12
CCCCn1c(O)c(N=NC(=O)Cn2c(C(F)(F)F)nc3ccccc32)c2ccccc21	-3	3.4	3	1	10455	4	5
CCOc1cc(C(=O)OCC(=O)Nc2ccc(SC(F)F)cc2)cc(OCC)c1OCC	-42	6.1	13	7	8468	1	-18
COC(=O)c1sc(N)nc1C(C)(C)C	-1	0.0	x	x	2755	6	-2
Cc1ccc(-c2nc(C(=O)NCCCN3CCOCC3)cc3c2[nH]c2ccccc23)cc1	0	-4.9	x	x	6024	7	10
O=[N+]([O-])c1ccc(-c2cnc(SCc3ccccc3Cl)[nH]2)cc1	-29	5.5	11	5	3710	-10	1
CCS(=O)(=O)N1CCN(c2cc3c(cc2[N+](=O)[O-])n(C)c(=O)n3C)CC1	-12	1.9	-3	18	4801	0	1
COc1cc2c3c(c1OC)C1(C=CC(=O)C=C1)CC3N(C(C)=O)CC2 (stereo unspecified)	-22	8.0	6	-1	10619	1	12
CCN(CC)S(=O)(=O)c1ccc(C(=O)NCCCn2ccnc2)cc1	-27	0.9	-2	4	4159	-14	4
O=C(O)/C=C/c1cn(Cc2ccccc2)nc1-c1cccs1	-24	18	-4	-5	4278	11	3
CC(=O)N/N=C(\C)c1cccc(NC(=O)c2cccs2)c1	-26	x	x	x	2127	x	7
O=C(/C=C/c1cccc([N+](=O)[O-])c1)NCCN1CCOCC1	-44	3.5	7	6	10791	9	-6
Cc1ccc(OCC(=O)Nc2ccc(S(=O)(=O)N3CCOCC3)cc2)c([N+](=O)[O-])n1	-27	1.1	2	5	4424	-2	5
CCC1=C(OC(=O)N(CC)CC)N2C(=O)OC(=NCC3CC3)[C@]2(C)[C@H]2C1=CC[C@H]1C(=O)N(CC)C(=O)[C@H]12	-19	x	x	x	3929	x	2
COc1cc(C(=O)OCCCOC(=O)c2cc(OC)c(OC)c(OC)c2)cc(OC)c1OC	1	1.3	5	1	5918	4	3
CC(=O)N1CCN(C(C)=O)c2ccccc21	-27	0.3	7	8	3486	1	x
O=C(O)c1ccc(NS(=O)(=O)Cc2ccc(Cl)c(Cl)c2)cc1	-16	5.8	0	8	3753	6	x
CC(C)CN1C(=O)c2ccc(C(=O)Nc3ccccn3)cc2C1=O	-43	6.2	11	2	4355	18	-2
CCOC(=O)C1(C(F)(F)F)N=C(C(F)(F)F)Nc2ccc(F)cc21 (stereo unspecified)	-13	6.4	0	2	2252	-10	-11
O=C(CNc1ccc(F)cc1)NN=C1CCc2ccccc21	x	-1.6	1	-1	x	5	x
O=C(Cn1ccc([N+](=O)[O-])n1)N1CCCCCC1	x	2.8	14	9	3822	6	10
O=C(O)Cc1c[nH]c2ccccc12	-29	-1.5	x	x	5796	-23	6

The listing continues:
SMILES	PrP 5UTR inh	Sa RN4220 lethal	Mtb hypoxia inh	Mtb hypoxia inh growth	Bead autofluor	ugtP null kill	BJeLR lethal
Cc1ccccc1NC(=O)c1cc(=O)c2ccccc2o1	-20	3.3	-1	1	11710	-4	-2
COCCn1c(=O)c2cc3c(=O)n(CCOC)c(=O)c3cc2c1=O	x	4.1	-4	1	10789	0	-7
CCC1=CCN(CCc2c(C)[nH]c3ccccc23)CC1	-11	1.9	x	x	5160	0	-1
CCOc1ccccc1CNCCNC(=O)c1nonc1N	-7	2.3	1	7	4686	11	-4
COc1cc(NC(=O)C2=C(N3CCOCC3)/C(=C\c3ccc(N(C)C)cc3)CCC2)cc(OC)c1OC	-18	0.8	-3	7	2042	-2	24
O=C(Nc1cccnc1)c1cnn2c(C(F)F)cc(C3CC3)nc12	8	1.6	x	x	4386	11	-9
COc1ccc(CC(=O)n2nc(-c3cccnc3)nc2N)cc1	-18	4.2	10	6	6193	6	-4
S=C(NCc1ccco1)NCC1CCCO1 (stereo unspecified)	-11	7.2	12	7	4585	4	1
Cc1ccc(CNC(=O)C2CCCN(S(=O)(=O)c3c(C)noc3/C=C/N(C)C)C2)cc1 (stereo unspecified)	-14	3.2	9	7	4028	11	7
Cc1onc(-c2ccccc2Cl)c1C(=O)N1CCN(Cc2ccc3c(c2)OCO3)CC1	-22	2.1	-1	9	4782	10	-3
CC(C)=CCC12CN3CCN(CC(C3)C1=O)C2	-16	2.2	1	9	3809	-6	2
O=C1c2ccccc2C(=O)N1Cc1cnc(N2CCN(c3ccccc3)CC2)s1	8	13	2	8	3271	5	-6
O=C(NCCn1cc(SCc2ccccc2)c2ccccc21)c1c(F)cccc1F	-15	-16	8	9	5792	-4	9
Clc1ccc(C=NN2CCCCC2)cc1	x	13	-2	0	x	5	x
CC(C)N(C(=O)[C@H]1C[C@H](CC(=O)NC(C)(C)C)C(=O)N2CCc3c([nH]c4cc(CCC(=O)N(C)C)ccc34)[C@]12C)C(C)C	-1	0.2	-7	3	3677	11	x
Cc1ccccc1-c1nc(CN2CCCC(C(=O)NCCCN3CCOCC3)C2)c(C)o1 (stereo unspecified)	-16	1.4	0	4	24221*	-4	11
